High-throughput results from PubChem BioAssay.
RmlCD inh 1536 = M. tuberculosis RmlC/RmlD inhibition. P9WH09+P9WH11. RmlC+RmlD coupled enzyme assay, percent inhibition; primary screen in compound mixtures. inhibition, % at 3.6 µM. 160,000 tested, 0.03% active; in the data active = inhibition mostly above about 34%, no sharp cut-off; only retested compounds are shown here; also: some results filed as inactive read as strong as hits
Target sequence (P9WH09 whole entry, looked up): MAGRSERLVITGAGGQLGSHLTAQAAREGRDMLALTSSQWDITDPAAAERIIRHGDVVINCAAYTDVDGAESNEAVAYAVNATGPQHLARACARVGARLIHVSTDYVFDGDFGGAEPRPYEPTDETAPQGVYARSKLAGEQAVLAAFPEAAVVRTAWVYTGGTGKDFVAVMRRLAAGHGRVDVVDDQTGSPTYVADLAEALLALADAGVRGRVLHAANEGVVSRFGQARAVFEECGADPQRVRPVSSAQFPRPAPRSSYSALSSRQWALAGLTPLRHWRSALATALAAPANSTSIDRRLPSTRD
Target sequence (P9WH11 whole entry, looked up): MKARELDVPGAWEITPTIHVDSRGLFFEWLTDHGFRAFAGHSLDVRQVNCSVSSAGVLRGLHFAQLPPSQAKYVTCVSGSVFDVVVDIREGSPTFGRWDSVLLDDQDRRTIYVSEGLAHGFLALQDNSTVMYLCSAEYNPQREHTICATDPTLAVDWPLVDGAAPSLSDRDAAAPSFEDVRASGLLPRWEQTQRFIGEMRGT
RmlCD inh 1536 retest = recorded beside RmlCD inh 1536, whose call it bears; inhibition, %; measured here: mean retest inhibition;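 single compounds in two wells; values far above 100% likely come from compound fluorescence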
* marks the source's active call; other numbers are inactive results. The list is partial; the hit share may differ from the screen's.

Sample of the layout:
SMILES	RmlCD inh 1536	RmlCD inh 1536 retest
c1cc2c3c(cccc3c1)C(N1CCCCCC1)=N2	45	13
O=C(CC(=O)N/N=C\c1c(Cl)cccc1Cl)NCc1ccccc1	44	-3
CC(NC(=O)NNC(=O)c1ccncc1)(C(F)(F)F)C(F)(F)F	65	-27
CC1CN(C(=O)c2cccn(Cc3c(Cl)cccc3Cl)c2=O)CC(C)O1 (stereo not drawn)	80	-9

Main list, previewed entries included:
SMILES	RmlCD inh 1536	RmlCD inh 1536 retest
c1cc2c3c(cccc3c1)C(N1CCCCCC1)=N2	45	13
O=C(CC(=O)N/N=C\c1c(Cl)cccc1Cl)NCc1ccccc1	44	-3
CC(NC(=O)NNC(=O)c1ccncc1)(C(F)(F)F)C(F)(F)F	65	-27
CC1CN(C(=O)c2cccn(Cc3c(Cl)cccc3Cl)c2=O)CC(C)O1 (stereo not drawn)	80	-9
C[C@@H]1CN(Cc2nc(-c3cnccn3)no2)C[C@H](C)O1	49	-26
COc1ccc(OC)c(CN2CCC(CNC(=O)Nc3cccc(Cl)c3)CC2)c1	35	12
CC1CN(c2ccc(C(F)(F)F)cc2[N+](=O)[O-])CCN1S(C)(=O)=O (stereo not drawn)	31	3
CCNC(=S)N1CCC(c2nc3cc(C)c(C)cc3[nH]2)CC1	55	4
CCOC(=O)n1c(=O)n(Cc2cccc(C)c2)c2ccccc21	63	-1
COc1ccc(-c2ccnc3c(C#N)cnn23)cc1	44*	107*
O=C(C1CCCO1)N1CCN(C(=S)Nc2ccc(Cl)cc2)CC1 (stereo not drawn)	48	-4
COCCNc1nc(CSc2ccccc2)nc2sc(C)c(C)c12	88	7
S=c1nc[nH]c2c1sc1nc(N3CCOCC3)c3c(c12)CCCC3	43	8
COc1ccc(NC(=O)CCC(=O)N/N=C/c2ccc([N+](=O)[O-])s2)cc1	51	-11
C#CCSc1nnnn1-c1ccc(Br)c(C)c1	83	7
O=C(NCCNc1ccc([N+](=O)[O-])cc1C(F)(F)F)c1ccccc1	33	-31
O=C(Nc1nc2ccccc2[nH]1)C1CC1	37	0
CCOc1ccc(C(=O)NCC(=O)OCc2cc(C(C)=O)ccc2OC)cc1	31	-6
COc1ccc(C2=NN(Cc3c(F)cccc3Cl)C(=O)CC2)cc1	33	4
COc1ccc(C(=O)OCn2nnc3ccccc3c2=O)cc1[N+](=O)[O-]	35	-10
CC(C)(C)c1ccc(C(=O)NCc2ccccc2)cc1	40	-15
O=C(Nc1cccc([N+](=O)[O-])c1)C1C2CC/C=C\CCC21 (stereo not drawn)	78	-2
O=S(=O)(Nc1nccs1)c1ccc(Nc2nnc(-c3ccccc3)c3ccccc23)cc1	50	-23
CCCC[N+]12CCC(CC1)C(Cc1ccccc1)C2 (stereo not drawn)	93	5
O=C(CCc1nnc(CCCCc2ccccc2)o1)N1CCN(CCO)CC1	63	0

Six structures out of the list, ordered by heavy-atom count, descending:
SMILES	RmlCD inh 1536	RmlCD inh 1536 retest
COc1ccc(OC)c(CN2CCC(CNC(=O)Nc3cccc(Cl)c3)CC2)c1	35	12
CC1CN(C(=O)c2cccn(Cc3c(Cl)cccc3Cl)c2=O)CC(C)O1 (stereo not drawn)	80	-9
O=C(NCCNc1ccc([N+](=O)[O-])cc1C(F)(F)F)c1ccccc1	33	-31
COCCNc1nc(CSc2ccccc2)nc2sc(C)c(C)c12	88	7
c1cc2c3c(cccc3c1)C(N1CCCCCC1)=N2	45	13
C#CCSc1nnnn1-c1ccc(Br)c(C)c1	83	7

More structures follow.
SMILES	RmlCD inh 1536	RmlCD inh 1536 retest
O=[N+]([O-])c1ccc(Oc2cccc3cccnc23)c([N+](=O)[O-])c1	43	7
O=C(Nc1ccccc1Cl)Nc1cccnc1Cl	74	-16
COc1ccc(C(=O)NC(=S)SCC(=O)O)cc1	33	3
Cc1ccc(/C=N/N2CCCCC2)o1	34	0
CCOC(=O)CSc1nnc(CNC(=O)c2cccc(C)c2)n1-c1ccccc1OC	32	-3
Cc1ccc(-c2csc3ncn(/N=C/N(C)C)c(=O)c23)o1	33	-12
CCN(c1ccccc1)S(=O)(=O)c1ccc(Cl)c(NC(=O)CN2CCCCCC2)c1	36	7
COc1ccc(NC(=O)C(=O)NNC(=O)c2cccs2)cc1	44	6
Nc1nonc1-n1nnc(C(=O)N/N=C/c2ccc(Br)cc2)c1CSC1=NCCS1	50	-10
CC(Sc1ccc2ccccc2n1)C(=O)O (stereo not drawn)	45	1
Cc1cccc(/C=N/NC(=O)NC23CC4CC(CC(C4)C2)C3)n1	36	-7
Fc1ccccc1-c1csc(=Nc2cccnc2)n1CC1CCCO1 (stereo not drawn)	31	1
CC(C)Cn1c2c(c(O)c(C(=O)Nc3nc4ccccc4s3)c1=O)CCCC2	82*	107*
N#C/C(=C\c1ccncc1)c1nc2ccccc2[nH]1	34*	52*
CCc1ccc(NC(=O)N[C@H](C(=O)O)C(C)CC)cc1 (stereo partly drawn)	36	-36
COc1cc(/C=N/n2cnnc2-n2nc(C)cc2C)cc([N+](=O)[O-])c1O	37	-2
C=CCc1c(C)nc2c(OC)cccc2c1Cl	58	11
CN(C(=O)COC(=O)c1cc(NS(=O)(=O)c2cc([N+](=O)[O-])ccc2Cl)ccc1O)C1CCCCC1	33	3
N=C1CCC(=N)c2c1c(O)c1ccccc1c2O	65	-15
Cc1ccc(N=Nc2c(N)[nH]n3c(=O)cc(-c4ccccc4)nc23)cc1	44	-4
Nc1nc(NCc2ccco2)nc(Nc2cccc(F)c2)c1[N+](=O)[O-]	65	-5
S=c1[nH]nc(CN2CCCCC2)n1Cc1ccccc1	67	0
Cc1cc(NC(=O)CN2C(=O)NC(C)(c3ccc(Cl)cc3)C2=O)no1 (stereo not drawn)	40	2
CCOc1ccc(/C=N/NC(=O)c2csc(C)c2C)c(OCC)c1	43	-5
COc1ccc(/C=C2/S/C(=N/S(=O)(=O)Cc3ccccc3)NC2=O)cc1OC	66	-4

Pulled by compound from the entries so far:
SMILES	RmlCD inh 1536	RmlCD inh 1536 retest
CC(Sc1ccc2ccccc2n1)C(=O)O (stereo not drawn)	45	1
Cc1cc(NC(=O)CN2C(=O)NC(C)(c3ccc(Cl)cc3)C2=O)no1 (stereo not drawn)	40	2
C=CCc1c(C)nc2c(OC)cccc2c1Cl	58	11
COc1ccc(/C=C2/S/C(=N/S(=O)(=O)Cc3ccccc3)NC2=O)cc1OC	66	-4
CCc1ccc(NC(=O)N[C@H](C(=O)O)C(C)CC)cc1 (stereo partly drawn)	36	-36
CN(C(=O)COC(=O)c1cc(NS(=O)(=O)c2cc([N+](=O)[O-])ccc2Cl)ccc1O)C1CCCCC1	33	3

(next part)
SMILES	RmlCD inh 1536	RmlCD inh 1536 retest
O=C(O)CC(C(=O)O)N1C(=O)/C(=C/C=C/c2ccco2)SC1=S (stereo not drawn)	49	1
CCOC(=O)c1c(CN2CCC(C)CC2)n(C)c2cc(Br)c(OC)cc12	48	-14
Cc1nnc(SCC(=O)N(CC(C)C)c2c(N)n(CC(C)C)c(=O)[nH]c2=O)n1-c1ccccc1	65	-11
Cc1ccc(NC2(C(F)(F)F)N=C(c3ccccc3)NC2=O)nc1 (stereo not drawn)	107	7
O=C(O)CCNC(=S)Nc1cccc(F)c1	35	-6
COc1ccc(Nc2nnc(SCC(=O)/C=C3/N(C)c4ccccc4C3(C)C)s2)cc1	32	5
O=C1N=C(N2CCc3ccccc3C2)S/C1=C\c1ccc(O)cc1	50	10
CN(C)CCCNc1ccc(S(N)(=O)=O)cc1[N+](=O)[O-]	32	3
Cc1[nH]c2ccccc2c1C(=O)C(=O)NCCOc1ccccc1	65	3
CCN(CC)S(=O)(=O)c1ccc(NC(=O)COC(=O)c2cnc(C)cn2)cc1	36	3
Cc1nnc2nc(-c3ccccc3)nc(-c3ccccc3)n12	62	-19
CCOc1ccc2c(c1)ncn2Cc1ccccc1	37	-7
CCCOc1ccccc1N/C(=N/c1nc(C)cc(C)n1)NC(=O)COc1ccc(OC)cc1	45	10
NC(=O)Nc1ccc(Cl)cc1	79	7
O=c1c2c(ncn2C2CCCC2)n(Cc2ccccc2)c(=O)n1CCOc1ccccc1	74	11
COc1ccc(/C=C2/CCc3ccccc3C2=O)cc1CN1CCOCC1	64	-10
COc1ccccc1/C=C/C=N/n1c(COc2ccccc2)n[nH]c1=S	43	5
Nc1sc2c(c1C(=O)NC1CCS(=O)(=O)C1)CCC2 (stereo not drawn)	96	-1
COc1ccccc1N1CCN(C(=O)CN2C(=O)c3ccccc3S2(=O)=O)CC1	43	7
N#C/C(=C\c1cccnc1)C(=O)Nc1ccc(C(=O)O)cc1	65	-18
CCOC(=O)c1c(CSc2ccccc2)oc2cc(Br)c(O)c(CN(C)C)c12	70	-9
O=C(CC1C(=O)NCCN1C(=O)Nc1ccc(C(F)(F)F)cc1)Nc1ccc(F)cc1 (stereo not drawn)	31	-3
Cc1ccc(CNC(=O)C2(c3cccs3)CCOCC2)cc1	32	-1
Cc1[nH]n2c(=O)cc(C(C)(C)C)nc2c1-c1ccccc1	104	2
CC(C)(C)C1CCc2c(sc3ncn(N)c(=N)c23)C1 (stereo not drawn)	51	-13

One compound at a time (already shown). Values in the order: RmlCD inh 1536, RmlCD inh 1536 retest
N#C/C(=C\c1ccncc1)c1nc2ccccc2[nH]1 reads 34*, 52*
Cc1nnc(SCC(=O)N(CC(C)C)c2c(N)n(CC(C)C)c(=O)[nH]c2=O)n1-c1ccccc1 reads 65, -11

Next entries follow.
SMILES	RmlCD inh 1536	RmlCD inh 1536 retest
COc1ccc2nc(C)cc(N3CCC(C(N)=O)CC3)c2c1	46	13
O=C(COC(=O)CCN=C1NS(=O)(=O)c2ccccc21)NC1CCCCCCC1	46	-5
O=C(Nc1ccc(F)cc1)C1CC(=O)n2c(nc3ccccc32)N1 (stereo not drawn)	35	-16
CCn1c(=O)n(CC)c2cc([N+](=O)[O-])c(N3CCNCC3)cc21	41	-25
Cc1cccc(NC(=S)NCC(c2ccccc2)N(C)C)c1 (stereo not drawn)	35	2
CN1CCN(C(=O)c2ccc(Oc3ccc([N+](=O)[O-])cc3)cc2)CC1	66	9
C=CCNC(=O)CCc1nnc(C2(c3ccc(Cl)cc3)CCC2)o1	89	10
O=C(NCC1CCCO1)[C@@H]1CSC2c3ccccc3C(=O)N21 (stereo partly drawn)	46	-6
C=CCN=c1scc(-c2ccccc2)n1/N=C/c1ccccn1	46	-8
Nc1nc(Cl)cc(Oc2ccccc2F)n1	37	-34
Cc1nn(Cc2ccc(C(=O)Nc3ccccc3F)cc2)c(C)c1Cl	41	8
Cc1ccc(C(=O)O/N=C\c2ccc(N3CCOCC3)c([N+](=O)[O-])c2)cc1	97	-9
COCCn1cnc2c1c(=O)n(CC(=O)OCC(=O)NCC(F)(F)F)c(=O)n2Cc1ccccc1	107	-25
CCN1CCCC1CN(Cc1cc2ccc(C)cc2[nH]c1=O)C(=S)Nc1cccc(OC)c1 (stereo not drawn)	38	-9
CCCC12CN3CCN(CC(C3)/C1=N\NC(=O)c1ccncc1)C2	60	12
O=C(O)CCn1c(=O)c2ccccc2c2ccccc2c1=O	44	-28
c1ccc(COc2ccc(OCCN3CCCC3)cc2)cc1	34	9
CCn1c(CN2c3ccccc3Sc3ccccc32)n[nH]c1=S	55	-5
O=C(NC1CCCCC1)c1ccccc1-c1ccccc1	72	0
O=C(O)CCc1ccc(-c2ccc(Br)cc2)n1NC(=O)c1ccc([N+](=O)[O-])cc1	51	-12
C/C(=N\NC(=O)Cc1c[nH]c2ccccc12)c1ccc2ccccc2c1	89	-4
O=C(CSc1nncn1-c1ccccc1)NCc1cccs1	81	-14
CC(C)OP(=O)(OC(C)C)C(NC(=O)c1ccc(Br)cc1)c1ccccc1 (stereo not drawn)	31	-16
O=c1[nH]sc2cc(F)ccc12	88	-4
CCCNC(=O)CSCc1nc(-c2ccc(SC)cc2)oc1C	33	10
Cc1ccc(NC(=O)NCCSc2ccc(C)cc2)cc1	30	1
